PV pol inh: poliovirus RNA polymerase inhibition; P03300; poliovirus polymerase elongation, fluorescence polarization; stronger effect = lower value; % elongation, % (compound at 16.7 µg/mL); hit rate 0.66% among 150,000; AID 588519; in the data active = % elongation below about 90%; also: some results filed as inactive read as strong as hits
Target sequence (P03300 1749-2209 limits assumed): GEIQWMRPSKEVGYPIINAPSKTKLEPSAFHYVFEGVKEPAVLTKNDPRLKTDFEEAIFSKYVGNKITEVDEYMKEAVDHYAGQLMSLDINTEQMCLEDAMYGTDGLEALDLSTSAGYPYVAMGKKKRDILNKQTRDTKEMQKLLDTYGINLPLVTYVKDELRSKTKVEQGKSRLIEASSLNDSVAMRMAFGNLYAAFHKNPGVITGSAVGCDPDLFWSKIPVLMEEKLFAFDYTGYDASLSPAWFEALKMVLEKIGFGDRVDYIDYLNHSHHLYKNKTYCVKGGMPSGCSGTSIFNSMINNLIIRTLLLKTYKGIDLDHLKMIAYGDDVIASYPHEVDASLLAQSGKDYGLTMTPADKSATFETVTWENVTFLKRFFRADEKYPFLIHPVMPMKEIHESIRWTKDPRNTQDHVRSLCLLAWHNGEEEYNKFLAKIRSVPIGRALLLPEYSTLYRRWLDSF
MenB inh: blocks the Mycobacterium tuberculosis MenB enzyme; P9WNP5; MenB enzyme assay, absorbance read-out; some hits fall short of the stated cut; inhibition, %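 (about 12 µg/mL by stock and volumes)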; hit rate 0.43% among 100,000;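 active = mean of two replicates above 30%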;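 also: 0% = no compound and 100% = wells with inactive enzyme; the first replicate is given; strong numbers were not always called active; inactives centre near -10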
Target sequence (P9WNP5 whole entry, looked up): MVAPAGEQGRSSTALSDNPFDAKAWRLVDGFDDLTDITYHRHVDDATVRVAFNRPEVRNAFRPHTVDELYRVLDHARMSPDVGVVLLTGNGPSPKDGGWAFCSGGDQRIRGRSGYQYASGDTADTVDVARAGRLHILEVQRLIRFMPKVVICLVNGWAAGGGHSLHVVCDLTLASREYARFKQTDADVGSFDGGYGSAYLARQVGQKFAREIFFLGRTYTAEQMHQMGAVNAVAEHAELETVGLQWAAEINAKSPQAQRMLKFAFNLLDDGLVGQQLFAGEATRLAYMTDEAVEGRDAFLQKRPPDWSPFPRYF
Mtb MbtI inh: inhibitors of Mycobacterium tuberculosis siderophore enzyme MbtI; inhibition, %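 (about 17 µg/mL by stock and volumes)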; P9WFX0; hit rate 0.89% among 100,000; purified MbtI enzyme, fluorescence intensity read-out; AID 493033;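 active = above 50% in both replicates, above 80% if mildly self-fluorescent; inactive = the rest, strongly fluorescent compounds included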;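 also: 0% = mean of negative and 100% = mean of positive controls; one replicate is shown; some compounds called inactive have numbers as strong as hits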
PV pol inh intensity: also measured in PV pol inh; calls as there; % elongation; measured here: total intensity read-out; formula for this scale not given here;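 total fluorescence in place of polarization; lower means less elongation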
Starred values were filed as active, the others as inactive; · = no result given.

Below each compound – PV pol inh | PV pol inh intensity | MenB inh | Mtb MbtI inh
- CC(C)CC(=O)Nc1cccc(-c2nnc(-c3cccc(NC(=O)CC(C)C)c3)o2)c1
 : 102.0 | 102.0 | 1.2 | 65.4
- Cc1ccc(C)c(CSC2=NCCN2C(=O)COc2ccccc2)c1
 : 103.0 | 106.0 | -30.3 | 1.8
- CCCNC(=O)c1cc(=O)n(Cc2ccc(C)cc2)c2ccccc12
 : 101.0 | 93.0 | -24.4 | 8.6
- N#C/C(=C\c1cn(-c2ccccc2)nc1-c1ccccc1)C(=O)N1CCCCC1
 : 103.0 | 103.0 | -17.3 | 0.3
- CCn1c(SC(C)C(=O)Nc2ccnn2C(C)C)nc2sc(C)c(C)c2c1=O (stereo not drawn)
 : 105.0 | 114.0 | -16.8 | 3.4
- COc1ccc([C@H]2NC(=O)C(=C=[N-])C(=O)[C@@H]2[n+]2ccccc2)cc1
 : 37.0* | 50.0* | -16.0 | ·
- CCc1cc2c(=O)n(-c3ccccc3)c(SCC(=O)c3cccs3)nc2s1
 : 106.0 | 100.0 | -50.6 | -3.1
- COc1ccc(-c2oc3ncn(CCCn4ccnc4)c(=N)c3c2-c2ccc(OC)cc2)cc1
 : 100.0 | 89.0 | -30.7 | -118.2
- Cc1cc(=O)[nH]c(NC(N)=NCc2ccccc2)n1
 : 102.0 | 101.0 | -4.5 | -1.9
- C=CCN1C(=O)C(O)(CC(=O)c2ccccc2)c2ccccc21 (stereo not drawn)
 : 101.0 | 96.0 | -24.5 | -4.9
- COc1ccc2c(c1)c(C(=O)O)c(C)n2CCc1ccc(OC)c(OC)c1
 : 99.0 | 101.0 | -14.3 | -26.1
- CNc1cc(=O)n(C)c(=O)n1C
 : 106.0 | 102.0 | -7.3 | -6.8
- O=C1c2ccccc2C(=O)N1CSc1n[nH]c(-c2ccccc2Br)n1
 : 96.0 | 99.0 | -17.9 | 11.0
- O=c1c2c3c(sc2ncn1Cc1ccccc1)CCCC3
 : 105.0 | 108.0 | -28.2 | ·
- O=C1O[C@H](C(O)CO)C(O)=C1O (stereo partly drawn)
 : 101.0 | 98.0 | -6.9 | -4.7
- O=C1CNC(=S)N1Cc1cccs1
 : 104.0 | 98.0 | -53.6 | -1.9
- C/C(=N\NC(N)=O)c1ccccc1O
 : 102.0 | 105.0 | -26.8 | -6.4
- CN1CCN(Cc2c(O)ccc3cc(-c4nc5ccccc5[nH]4)c(=O)oc23)CC1
 : 73.0 | 195.0 | -65.5 | 18.9
- CCCOC(=O)c1ccc(-n2nc(C(F)(F)F)c3c(C)cc(=O)oc32)cc1
 : 105.0 | 95.0 | -17.8 | ·
- Clc1ccc(C2Oc3ccccc3CN2Cc2ccco2)cc1 (stereo not drawn)
 : 107.0 | 103.0 | -7.7 | 1.5
- CN(c1ccccc1)S(=O)(=O)c1ccc(C(=O)c2sc(N3CCOCC3)nc2-c2cccs2)cc1
 : 107.0 | 120.0 | -18.7 | -29.8
- COCC(C)NS(=O)(=O)c1ccccc1 (stereo not drawn)
 : 103.0 | 112.0 | 0.4 | -14.6
- COc1ccc(-c2noc(CSCC(=O)Nc3ccc(C(C)C)cc3)n2)cc1OC
 : 104.0 | 107.0 | -27.0 | -12.9
- Cn1c(C(=O)N2CCc3ccccc32)cc2sccc21
 : 101.0 | 101.0 | -9.8 | -7.3
- CSc1nc(N)n2nc(-c3cccs3)cc2n1
 : 99.0 | 99.0 | 7.6 | 1.5
- COc1ccc(-c2noc(CC(=O)N(C)CCC#N)n2)cc1
 : 103.0 | 105.0 | 11.3 | -5.5
- c1ccc(Cn2nnnc2CN2CCCC2)cc1
 : 103.0 | 103.0 | -35.8 | -10.9
- COc1ccc(CC(=O)Nc2ccc(-c3nnc(-c4ccc(C)cc4)o3)cc2)cc1
 : 103.0 | 106.0 | -30.2 | -129.8
- Cc1cc2n(n1)c1cc(C)nn1c1cc(C)nn21
 : 100.0 | 103.0 | 1.3 | -15.6
- CCN1CCS/C1=C\C=C\C1=[N+](CC)CCS1
 : 102.0 | 104.0 | -246.8 | 29.9
- Cc1ccc2nc(C)cc(C(=O)O)c2c1
 : 102.0 | 103.0 | 32.7* | 0.6
- Nc1c(C(=O)N2CCCCC2)sc2nc(-c3cccs3)cc(C(F)(F)F)c12
 : 45.0 | 253.0 | -3.3 | ·
- COc1ccc(CC(=O)OCC(=O)N2CCN(S(=O)(=O)c3ccc(C)cc3)CC2)cc1
 : 102.0 | 105.0 | -16.0 | -0.9
- O=C(NC1=NCCS1)C1CCN(S(=O)(=O)c2ccc(Cl)cc2)CC1
 : 103.0 | 105.0 | 3.9 | 13.3
- Cc1cccc(S(=O)(=O)N/N=c2\sc3ccccc3n2C)c1
 : 103.0 | 104.0 | -21.1 | 6.3
- CC[N+](C)(CC)Cc1cc2ccccc2c2c1COC2
 : 103.0 | 96.0 | -24.0 | 18.6
- O=C(/C=C/c1ccco1)Nc1ccc(-c2cc3ccccc3oc2=O)cc1
 : 104.0 | 104.0 | -36.6 | -8.9
- O=C(Cc1ccc(Cl)cc1)OC1CCOC1=O (stereo not drawn)
 : 102.0 | 104.0 | -18.8 | -2.9
- CCN(CC)C(=O)CSc1nc2ccccc2c(=O)[nH]1
 : 103.0 | 112.0 | -2.6 | -7.1
- COc1ccccc1C1(C#N)C(=O)Nc2ccccc21 (stereo not drawn)
 : 99.0 | 95.0 | · | 6.5
- CCc1sc(C(=O)Nc2nc(-c3ccccn3)cs2)cc1C
 : 128.0 | 132.0 | -85.4 | 3.7
- O=C(O)c1ccc(NNC(=S)NC2CC2)cc1
 : 99.0 | 95.0 | -11.0 | 16.2
- Clc1ccc2oc(-c3ccccc3)cc(=NCCCN3CCOCC3)c2c1
 : 99.0 | 96.0 | -3.9 | 5.5
- Cc1c(CNCCC2=CCCCC2)c(C(=O)O)c(C)n1Cc1cccc(Cl)c1
 : 102.0 | 100.0 | -12.4 | -6.6
- COc1ccc(NC(C)=O)cc1NC(=O)CN1CCCN(S(=O)(=O)c2ccc(Br)cc2)CC1
 : 101.0 | 99.0 | -5.4 | 38.0
- CN1C(=O)/C(=C\c2ccccc2)Sc2ccc(C(=O)NCCc3ccccc3)cc21
 : 104.0 | 107.0 | -26.2 | 2.9
- CCO/C=C1/C(=O)N(Cc2ccc(OC)cc2)C(=O)c2ccccc21
 : 36.0* | 45.0* | 24.1 | -7.0
- O=C(CS(=O)(=O)c1ccccc1)Nc1ccc(S(=O)(=O)N2CCCCC2)cc1
 : 99.0 | 102.0 | 13.0 | -5.1
- COC(=O)C(C)Oc1ccc2oc(=O)cc(-c3cc4ccccc4o3)c2c1 (stereo not drawn)
 : 104.0 | 106.0 | -18.3 | -8.7
- COC(=O)c1noc(C(=O)OC)c1O
 : 102.0 | 103.0 | 0.9 | 4.8
- Cc1ccccc1OC(=O)OCC(C)C
 : 97.0 | 101.0 | -3.7 | -1.1
- CCc1ccccc1NS(=O)(=O)c1ccc(-n2cccn2)cc1
 : 102.0 | 100.0 | -21.8 | -1.5

21 of the compounds above, as a markdown table.
| canonical_smiles | PV pol inh | PV pol inh intensity | MenB inh | Mtb MbtI inh |
| --- | --- | --- | --- | --- |
| N#C/C(=C\c1cn(-c2ccccc2)nc1-c1ccccc1)C(=O)N1CCCCC1 | 103.0 | 103.0 | -17.3 | 0.3 |
| CCn1c(SC(C)C(=O)Nc2ccnn2C(C)C)nc2sc(C)c(C)c2c1=O (stereo not drawn) | 105.0 | 114.0 | -16.8 | 3.4 |
| COc1ccc([C@H]2NC(=O)C(=C=[N-])C(=O)[C@@H]2[n+]2ccccc2)cc1 | 37.0* | 50.0* | -16.0 | · |
| CCc1cc2c(=O)n(-c3ccccc3)c(SCC(=O)c3cccs3)nc2s1 | 106.0 | 100.0 | -50.6 | -3.1 |
| COc1ccc(-c2oc3ncn(CCCn4ccnc4)c(=N)c3c2-c2ccc(OC)cc2)cc1 | 100.0 | 89.0 | -30.7 | -118.2 |
| Cc1cc(=O)[nH]c(NC(N)=NCc2ccccc2)n1 | 102.0 | 101.0 | -4.5 | -1.9 |
| C=CCN1C(=O)C(O)(CC(=O)c2ccccc2)c2ccccc21 (stereo not drawn) | 101.0 | 96.0 | -24.5 | -4.9 |
| COc1ccc2c(c1)c(C(=O)O)c(C)n2CCc1ccc(OC)c(OC)c1 | 99.0 | 101.0 | -14.3 | -26.1 |
| CNc1cc(=O)n(C)c(=O)n1C | 106.0 | 102.0 | -7.3 | -6.8 |
| O=C1c2ccccc2C(=O)N1CSc1n[nH]c(-c2ccccc2Br)n1 | 96.0 | 99.0 | -17.9 | 11.0 |
| O=c1c2c3c(sc2ncn1Cc1ccccc1)CCCC3 | 105.0 | 108.0 | -28.2 | · |
| O=C1O[C@H](C(O)CO)C(O)=C1O (stereo partly drawn) | 101.0 | 98.0 | -6.9 | -4.7 |
| O=C1CNC(=S)N1Cc1cccs1 | 104.0 | 98.0 | -53.6 | -1.9 |
| C/C(=N\NC(N)=O)c1ccccc1O | 102.0 | 105.0 | -26.8 | -6.4 |
| CN1CCN(Cc2c(O)ccc3cc(-c4nc5ccccc5[nH]4)c(=O)oc23)CC1 | 73.0 | 195.0 | -65.5 | 18.9 |
| CCCOC(=O)c1ccc(-n2nc(C(F)(F)F)c3c(C)cc(=O)oc32)cc1 | 105.0 | 95.0 | -17.8 | · |
| Clc1ccc(C2Oc3ccccc3CN2Cc2ccco2)cc1 (stereo not drawn) | 107.0 | 103.0 | -7.7 | 1.5 |
| CN(c1ccccc1)S(=O)(=O)c1ccc(C(=O)c2sc(N3CCOCC3)nc2-c2cccs2)cc1 | 107.0 | 120.0 | -18.7 | -29.8 |
| COCC(C)NS(=O)(=O)c1ccccc1 (stereo not drawn) | 103.0 | 112.0 | 0.4 | -14.6 |
| COc1ccc(-c2noc(CSCC(=O)Nc3ccc(C(C)C)cc3)n2)cc1OC | 104.0 | 107.0 | -27.0 | -12.9 |
| Cn1c(C(=O)N2CCc3ccccc32)cc2sccc21 | 101.0 | 101.0 | -9.8 | -7.3 |

Screening results from PubChem.

Rows are unselected. About 1.8% of those tested had a hit in this group.
